Screens deposited in PubChem by National Center for Advancing Translational Sciences (NCATS).
Sfp inh: inhibitors of Bacillus subtilis Sfp phosphopantetheinyl transferase; Q9F4F7; Biochemical Sfp PPTase activity, qHTS; Potency, µM, without a hit: max response, negative = inhibition, hits mostly inhibitors; actives 3.5% (n = 310,000); AID 1490; active = well fitted inhibition curve with a large enough effect; inconclusive = small, poorly fitted or top-dose-only effect, or another doubt; inactive = no such curve, though single readings can be large or run the other way;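 note: the enzyme is Sfp with the accession as filed and its product quenches rhodamine fluorescence; potency is the fitted concentration of half-maximal effect; 0% = enzyme reaction without inhibitor and -100% = no enzyme wells; top concentration of the series not given in the record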
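Sfp 15 nM + cpd, 15 min RT; start w/ rhodamine-CoA 5 uM, BHQ-2-YbbR 12.5 uM (final); 50 mM Hepes pH 7.6, 10 mM MgCl2, 0.01% NP-40, 0.01% BSA; read 525/598 nm at 0 and 30 min.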
TRPV1 potentiator: human TRPV1 potentiation. Q8NER1. actives 0.02% (n = 320,000). potentiation, % at 8.33 µM. TRPV1-expressing cells, Fluo-8 calcium influx, capsaicin EC20 potentiation; host cell line not named in the record; control for the full effect not named in the record; active means potentiation above 80%; inconclusive means 30% to 80%; inactive means below 30%; note: 0% is about no effect
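TRPV1-expressing cells were cultured overnight at 35.5C and loaded with Fluo-8 calcium dye for 40 to 90 min at room temperature. After a 10 s baseline, compound was added and calcium influx was read kinetically for 3 min (ex 480/em 520 nm).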
gsp ag: gsp mutant agonism; Potency, µM (titrated, usually from 76.9 µM), for inactives: at the highest dose activation (cAMP increase), hits mostly activators; gsp mutant cells, cAMP HTRF, 30 min; control for the full effect not named in the record; AID 624287; actives 0.13% (n = 340,000); active = well fitted activation curve with a large enough effect; inconclusive = small, poorly fitted or top-dose-only effect, or another doubt; inactive = no such curve, though single readings can be large or run the other way; cell line not stated here;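 note: phosphodiesterase inhibitor Ro 20-1724 added with compounds to block cAMP breakdown; potency is the fitted concentration of half-maximal effect; nearly all actives have a fitted effect of over 60% in size; about a fifth of the inactives were tested at one dose only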
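Cells in DMEM/10% FBS with G418 were pretreated with compounds in DMSO plus […] (300 uM stock) for 30 min at 37C. cAMP was measured by HTRF (cAMP-d2 plus anti-cAMP antibody-K) after 30 min at room temperature.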
gsp antagonist: antagonizes gsp, the McCune-Albright syndrome mutation | gsp-mutant cells, cAMP HTRF, 30 min; control for the full effect not named in the record | Potency, µM (titrated, usually from 76.9 µM), inactives show top-dose activity change, negative = inhibition, hits mostly inhibitors | actives 0.4% (n = 340,000); active = falling curve of any shape with a large fitted effect; inconclusive = falling curve, mostly with a smaller effect; inactive = flat or rising curve; cell line not stated here;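 note: intracellular cAMP measured with PDE inhibitor Ro 20-1724 present during compound exposure; potency is the fitted concentration of half-maximal effect; % is set by controls: 0 for no effect and ±100 for the full control effect; nearly all actives have a fitted effect of over 65% in size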
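HTRF cAMP measurement after 30 min RT detection following 30 min, 37C compound treatment alongside […] (added as 300 uM solution) in G418-selected cells seeded at 2000/well and grown 16–24 h.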
ClpP mod: qHTS Assay for Activators of ClpP | actives 1.9% (n = 340,000) | ATP-dependent Clp protease proteolytic subunit (Bacillus subtilis (strain 168)), P80244 | Potency, µM (series often up to 57.5 µM), for inactives: at the top dose activity change, negative = active | purified B. subtilis ClpP, FRET peptide cleavage, 20 min | AID 651965, 2013; active = well fitted falling curve with a large enough effect; inconclusive = small, poorly fitted or top-dose-only effect; inactive = no such curve, though single readings can be large or run the other way; note: potency is the fitted concentration of half-maximal effect; the source files actives as falling curves though it sought activators and does not explain the sign; nearly all actives have a fitted effect of over 65% in size; many hits overshoot -100%
Target sequence (P80244 whole entry, looked up): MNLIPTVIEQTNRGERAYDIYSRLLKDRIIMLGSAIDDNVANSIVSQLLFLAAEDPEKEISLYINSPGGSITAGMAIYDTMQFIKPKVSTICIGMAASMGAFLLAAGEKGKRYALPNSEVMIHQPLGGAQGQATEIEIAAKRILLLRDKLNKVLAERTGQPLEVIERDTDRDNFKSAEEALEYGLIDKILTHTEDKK
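ClpP 10 microg/mL final, pH 8 Tris/KCl buffer with BSA, glycerol, Tween-20; compound pinned in; FRET-FV substrate; RT 20 min; Ex320/Em430; ΔFRET vs ADEP 5.8 microM, DMSO, no enzyme.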
D2 potentiator: potentiates the human D2 dopamine receptor allosterically; actives 0.23% (n = 360,000); P14416; AID 624464; potentiation, % (no concentration beside the values); DiscoveRx D2 beta-arrestin cells, luminescence, 90 min; 100% = 57 uM dopamine signal; active = potentiation of 50% or more; inconclusive = 30% to 50%; inactive = 30% or less;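 note: compound concentration not given in the record; tested on top of an EC20 dose of dopamine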
Target sequence (P14416 whole entry, looked up): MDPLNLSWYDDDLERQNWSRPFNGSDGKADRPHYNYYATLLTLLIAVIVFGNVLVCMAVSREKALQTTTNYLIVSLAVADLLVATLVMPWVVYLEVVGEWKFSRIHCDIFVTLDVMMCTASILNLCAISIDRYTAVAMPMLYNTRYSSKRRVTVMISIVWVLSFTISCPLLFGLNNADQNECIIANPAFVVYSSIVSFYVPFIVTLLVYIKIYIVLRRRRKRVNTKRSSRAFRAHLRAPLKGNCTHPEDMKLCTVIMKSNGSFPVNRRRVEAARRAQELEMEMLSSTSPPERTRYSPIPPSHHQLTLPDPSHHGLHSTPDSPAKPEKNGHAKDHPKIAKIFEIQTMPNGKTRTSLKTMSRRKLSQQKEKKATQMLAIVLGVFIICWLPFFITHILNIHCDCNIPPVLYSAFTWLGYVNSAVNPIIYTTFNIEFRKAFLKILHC
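PathHunter D2 cells, attached overnight at 37 deg C, received compound in DMSO plus dopamine at EC20 (50 nM final) for 90 min at 37 deg C. Beta-arrestin recruitment was read as luminescence after 1 h with detection reagent at ambient temperature.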
Menin-MLL FL inh: displaces fluorescein MLL peptide from human menin; 290,000 tested, under 10 active; AID 1766; Fluorescence polarization, fluorescein-MLL peptide displacement from menin; FP activity change, % at 61.4 µM; inconclusive = falling polarisation curve, or a change in total fluorescence; inactive = total fluorescence flat and polarisation flat or rising; no compound was filed as active; the % refers to the polarisation; negative = inhibition;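 note: % of control where 0% means no effect; inhibitors lower the polarisation; unlabelled MLL peptide was the positive control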
* = called active by the depositor; ? = inconclusive; nt = no result given; & = joins results of further samples; [ ] = another dose, or the depositor's remark.

SMILES	Sfp inh	TRPV1 potentiator	gsp ag	gsp antagonist	ClpP mod	D2 potentiator	Menin-MLL FL inh
COc1cc(OC)c(C2=NOC(C(=O)NCCc3ccccc3)C2)cc1Cl (stereo not given)	-1%	3	15%	-3%	-12%	-17	2.2
COc1cccc(NC(=S)N2CCCC2)c1	-6%	-1	1%	12%	-0.2%	-9	0.3
O=C1CCC(/C=C/c2ccccc2)=NN1Cc1ccc(Cl)c(Cl)c1	6%	7	-8%	5%	-6.5%	-1	-0.7
Cc1cnc([N+](=O)[O-])n1CCOC(=O)NC(=O)c1ccc(C(F)(F)F)cc1	-1%	6	-8%[15.4 µM]	4%	nt	5	1.0
O=C(NS(=O)(=O)Oc1ccc(F)cc1F)OC[C@@H]1CCCN2CCCCC12 (stereo not given in full)	5%	10	-25%	5%	nt	-6	-2.3
CCC(C)NC(=O)CCc1c(C)nc2nc(-c3cc(OC)cc(OC)c3)nn2c1C (stereo not given)	11%	1	12%	-8%	-2.1%&-1.4%	-4	4.6
COc1ccc(/C=C2\SC(=O)N(CCC(=O)NCCCn3ccnc3)C2=O)cc1	17%	-13	-34%	-8%	-0.3%	-3	nt
Cc1ccc2nc(C)c(C(=O)N/N=C/c3ccc(C(=O)O)cc3)cc2c1	10%	-6	1%	0%	nt	-1	0.2
O=C(COC(=O)C1COc2ccccc2O1)NC(=O)Nc1ccc2c(c1)OCCO2 (stereo not given)	1%	0	?	0%	-3.4%	-6	-3.1
COc1ccc(CC(=O)OCC(=O)N2CCN(S(=O)(=O)c3ccc(C)cc3C)CC2)cc1OC	nt	-15	20%[15.4 µM]	-5%	-5.2%	-41	nt
CCn1cc(C(=O)OCC(=O)c2cc(C)n(-c3ccc(OC(F)F)cc3)c2C)c(=O)c2ccc(C)nc21	-19%	-1	-4%	5%	1.1%	-2	1.9
O=C(NC1CCCC1)C(c1ccncc1)N(C(=O)Cc1cccs1)c1ccccc1 (stereo not given)	21%	4	9%[15.4 µM]	3%	nt	-5	1.4
C=CCN(C(=O)CNC(=O)c1ccco1)C(C(=O)NC1CCCCC1)c1ccccc1F (stereo not given)	9%	4	23%	12%	1.3%	-7	1.7
CCOc1cc(C2Nc3ccccc3C(=O)N2c2ccccc2)c(Br)cc1OCC(=O)O (stereo not given)	1%	12	-4%	7%	?	-5	-0.3
CCC(ONc1ccccc1C(F)(F)F)(C(=O)NN(C)C)c1ccccc1 (stereo not given)	nt	6	11%	3%	-3.2%	-17	nt
O=C(Nc1ccn(Cc2c(F)c(F)cc(F)c2F)n1)c1cccc(Cn2cc([N+](=O)[O-])cn2)c1	32µM*	-2	?	-2%	0.7%	-7	-3.1
CCN(CC)CCN(C)Cc1ccc(Br)cc1	-4%	-2	-57%[inhibitor]	2%	1.0%	-25	1.2
CS(=O)(=O)c1ccccc1-c1nnc(-c2ccc(Cl)cc2)o1	?	9	-6%[15.4 µM]	-6%	nt	-4	0.6
O=C(NN=C1CCN(Cc2ccccc2)CC1)c1ccccc1	4%	0	-9%[15.4 µM]	10%	nt	-11	2.1
O=C(Nc1ccc2c(c1)C(=O)OC2)c1ccccc1Cl	4%	-2	15%	6%	nt	-7	4.9
Cc1nc(N2CCOCC2)sc1C=O	21%	15	-9%	11%	-3.1%	-7	1.8
Cc1ccc(S(=O)(=O)CCC(=O)OCC(=O)N2CCc3ccccc32)cc1	6%	-5	1%[15.4 µM]	-2%	-1.0%	-22	2.6
COC(=O)c1cnn(-c2ccccc2)c1/C=N/NC(=S)Nc1ccc(Cl)cc1	15%	0	11%[15.4 µM]	-23%	-3.1%	-1	0.8
COc1ccc(/C=N/OCC(=O)N(Cc2ccccc2)c2ccccc2C(=O)O)cc1	-3%	6	-28%	-2%	nt	1	1.8
CCc1nnc(NC(=O)c2ccc(COc3ccccc3Cl)o2)s1	13%	1	3%[15.4 µM]	2%	nt	-11	nt
SMILES	Sfp inh	TRPV1 potentiator	gsp ag	gsp antagonist	ClpP mod	D2 potentiator	Menin-MLL FL inh
N#Cc1c(N2CCSCC2)nsc1-c1ccccc1Cl	-7%	-15	16µM*	-8%	-0.3%	-5	16
COCc1cc(C)nc(N2CCN(Cc3ccccc3)CC2)c1C#N	-3%	-5	9%	2%	-20%	-51	0.0
CN1CCN(S(=O)(=O)c2cccc(C(=O)NCCC3=CCCCC3)c2)CC1	nt	12	-1%[15.4 µM]	7%	-5.1%	-4	nt
O=C1CCCN1CCC1CCN(C2CC(=O)N(c3ccc(F)cc3)C2=O)CC1 (stereo not given)	-14%	-6	-14%	-17%	-0.7%	5	3.4
COc1ccc2cc(C(=O)N(C)Cc3ccccc3)[nH]c2c1	2%	5	-16%	14%	-8.3%	-8	1.5
Cc1nn(CCC#N)c(N)c1C1(O)C(=O)Nc2c(Cl)cc(Cl)cc21 (stereo not given)	5%	3	8%	11%	nt	-8	-1.2
COCCN(C(=O)C(=O)NC1CCCC1)C(C(=O)NC1CCCC1)c1ccccc1F (stereo not given)	1%	-10	-4%	4%	1.8%	-6	-8.9
Cc1nnc(SCC(=O)N(CCC#N)c2ccc3c(c2)OCCO3)s1	nt	0	18%	4%	-1.4%	0	nt
O=C1C2C3C=CC(C4CC34)C2C(=O)N1c1cc(Cl)ccn1 (stereo not given)	18%	13	6%[15.4 µM]	?	0.4%	0	-0.1
CCOC(=O)c1cc(NC(=O)c2ccco2)ccc1N1CCOCC1	11%	-1	1%[15.4 µM]	-14%	nt	-12	-2.8
O=C(c1cccc(S(=O)(=O)N2CCCc3ccccc32)c1)N1CCN(c2ccccc2)CC1	nt	nt	-3%[15.4 µM]	?	1.1%	-40	nt
COC(=O)c1ccc(S(=O)(=O)c2ccc(Cl)cc2)c(N)c1	20%	12	20%	9%	3.8%	-7	-0.5
CCc1ccc(-n2c(SCC(=O)Nc3cc(C)[nH]n3)nc3[nH]ncc3c2=O)cc1	-3%	4	1%	-19%	0.7%	-19	2.0
Cc1ccc(CCNS(=O)(=O)c2cc(Br)cnc2N)cc1	7%	-1	-6%	-6%	nt	7	nt
CC1(C)CCCC(C)(C)N1CC(O)COCCOc1ccc(Br)cc1 (stereo not given)	?	10	-13%	15%	-4.3%	-16	-4.5
CC(=O)Nc1ccc(NC(=O)CSc2ccc(-c3ccco3)nn2)cc1	45µM*	-5	-39%[15.4 µM]	0%	-1.3%	-2	-0.8
Cc1cc2c3c([nH]c2cc1S(=O)(=O)NCc1ccc(CN2CCCCCC2)o1)CCCC3=O	2%	4	26%	6%	-5.0%	-28	-1.5
CCN(C(=O)CSc1nnc(-c2ccccc2F)n1N)c1c(N)n(Cc2ccccc2)c(=O)[nH]c1=O	nt	nt	-35%[inhibitor]	7%	-0.3%	-3	nt
CN1CCC(N(C)C(=S)Nc2ccc(SC(F)F)cc2)CC1	-9%	-7	3%	16%	-0.9%	-16	-0.6
COc1ccccc1-n1cn[nH]c1=S	-24%	-7	-13%[15.4 µM]	-13%	nt	-2	?
O=C(Nc1ccccn1)c1ccc([N+](=O)[O-])cc1Cl	18%	1	11%	6%	-1.1%	9	1.5
CCC(C)NC(=O)N[C@@H](CCSC)C(=O)O (stereo not given in full)	17%	2	-15%	11%	0.5%	-5	0.9
O=C(NCC1CCCCC1)c1cccc(-c2ccc(O)cc2)c1	9%	-1	?	-20%	nt	-7	-0.3
O=C(CN(c1ccc(F)cc1)S(=O)(=O)c1ccc2c(c1)OCCO2)NCc1ccncc1	8%	-35	6%	3%	-5.6%	-16	6.0
CCC1(CC)NC(=O)N(CC(=O)OCC(=O)Nc2cc(OC)ccc2OC)C1=O	nt	-3	-33%[inhibitor]	1%	0.7%	0	nt
SMILES	Sfp inh	TRPV1 potentiator	gsp ag	gsp antagonist	ClpP mod	D2 potentiator	Menin-MLL FL inh
Cc1ccc(S(=O)(=O)C(C)C(=O)NCCS(=O)(=O)c2ccc(Cl)cc2)cc1 (stereo not given)	18%	-3	2%	-12%	nt	-1	2.7
CCc1ccc(CCC(=O)Nc2nccs2)o1	8.9µM*	20	-22%	6%	-1.3%	2	4.8
COCCCNC(=O)Cn1cc(C(C)=O)c2ccccc21	15%	8	?	-22%	-3.6%	-4	0.0
N#CC1=C(N)C2=CCCC[C@H]2[C@H](c2ccccc2)C1(C#N)C#N	-9%	23	-3%	-4%	23%	-33	?
COc1ccc(CC(=O)Nc2c3c(nn2C(C)(C)C)CS(=O)(=O)C3)cc1	16%	21	-42%	16%	0.3%	-9	nt
Cn1c(CC(=O)Nc2ccc(Cl)cc2)nnc1SCC(=O)N1CCOCC1	15%	12	9%	10%	-0.7%	2	nt
Cc1csc(CNC(=O)c2ccc(OC3CCN(CCc4ccccc4)CC3)cc2)n1	11%	23	16%	1%	2.7%	-33	nt
COc1ccc(CNC(=O)Cn2ccc3cc(S(=O)(=O)N4CCCC4)ccc32)cc1OC	12%	-15	6%	-10%	1.6%	-7	1.2
Cc1ccn2c(=O)nc(SCC(=O)c3ccc(Cl)cc3)nc2c1	nt	-9	8%	-14%	-3.9%	-11	nt
CCOc1ccccc1NC(=O)CSc1nnnn1-c1ccccc1	10%	-8	14%	-16%	0.6%	-7	3.0
COCCNc1nnc(Cc2ccc(OC)c(OC)c2)c(=O)[nH]1	5%	-6	15%	13%	nt	-2	-1.5
COc1cccc(C(=O)OCCCOC(=O)c2cccc(OC)c2OC)c1OC	nt	nt	-9%	-1%	-3.6%	2	nt
COc1cc2c(cc1OC)CN(C(=O)/C=C/c1ccccc1[N+](=O)[O-])CC2	10%	-19	16%	-5%	nt	-6	3.9
COC(=O)c1cn(-c2ccccc2)c(=O)c2ccccc12	12%	-13	?	-8%	nt	-3	-3.0
c1ccc2oc(-c3csc(NCC4CCCO4)n3)cc2c1 (stereo not given)	-17%	7	2%[15.4 µM]	-29%	-0.9%	-19	0.0
COc1ccc(C(=O)CN2CCN(c3ccc(F)cc3)CC2)cc1OC	7%	4	11%	8%	-2.5%	-29	4.4
CC(=O)c1ccc(N2CCN(CC(=O)Nc3ccccc3C(=O)NC3CC3)CC2)c(F)c1	nt	-2	-21%	-22%	-3.1%	2	nt
